# From PubChem BioAssay
# 2A StopGo: lowers the luciferase signal of an FMDV 2A StopGo reporter | human cells with a luciferase reporter of 2A StopGo recoding; control for the full effect not named in the record | Potency, µM (series often up to 57.9 µM), for the others: at the highest dose signal change, negative = less light | hit rate 1.2% among 410,000; active = well fitted falling curve with a large enough effect; inconclusive = small, poorly fitted or top-dose-only effect; inactive = no such curve, though single readings can be large or run the other way; tested in HEK293T cells; also: % is scaled to controls: 0 for no effect and ±100 for the full control effect; nearly all actives have a fitted effect of over 45% in size; luciferase light after 4 h
# Cruzain Triton: inhibitors of Trypanosoma cruzi cruzain with detergent | P25779 | purified cruzain, Z-FR-AMC fluorescence, 0.01% Triton | hit rate 0.43% among 200,000 | AID 1478 | Potency, µM, for the others: max response, negative = inhibition, most hits filed as inhibitors; active = well fitted curve in the direction sought with a large enough effect; inconclusive = small, poorly fitted or top-dose-only effect, or another doubt; inactive = no such curve, though single readings can be large; an effect the other way counts as inactive or inconclusive;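 also: plate controls were neutral wells for no effect and buffer without enzyme for full effect; nearly all actives have a fitted effect of over 40% in size; top concentration of the series not given in the record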
# Target sequence (P25779 123-467 limits assumed): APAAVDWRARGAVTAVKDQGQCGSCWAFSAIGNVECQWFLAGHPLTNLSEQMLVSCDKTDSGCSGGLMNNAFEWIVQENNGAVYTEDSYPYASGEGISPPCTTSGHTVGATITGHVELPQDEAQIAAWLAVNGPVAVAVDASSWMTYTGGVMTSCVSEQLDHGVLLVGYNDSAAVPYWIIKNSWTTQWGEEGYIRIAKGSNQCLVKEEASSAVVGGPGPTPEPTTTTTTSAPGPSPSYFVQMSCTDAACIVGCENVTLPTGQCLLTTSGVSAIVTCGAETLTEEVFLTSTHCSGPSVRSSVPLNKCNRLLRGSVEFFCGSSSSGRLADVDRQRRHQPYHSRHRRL
#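 Z-FR-AMC hydrolysis (2 uM substrate) by cruzain (1.5 nM) monitored kinetically at ex 360/em 450 nm after 15 min room-temperature compound exposure; 0.01% Triton X-100, pH 5.5, 5 mM DTT.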
# LASV entry inh: inhibitors of Lassa virus binding or cell entry | Lassa virus pseudotype entry inhibition, cell reporter; control for the full effect not named in the record | Potency, µM (top dose mostly 37.9 µM), inactives show top-dose activity change, negative = inhibition, most hits filed as inhibitors | hit rate 1.2% among 300,000 | AID 540256; active means well fitted inhibition curve with a large enough effect; inconclusive means small, poorly fitted or top-dose-only effect, or effect the other way; inactive means flat fitted curve, though single readings scatter; tested in HEK293 cells; also: % is scaled to controls: 0 for no effect and ±100 for the full control effect; nearly all actives have a fitted effect of over 50% in size; luciferase read-out
# MARV entry inh: blocks Marburg virus binding to or entry into cells. Marburg virus pseudotyped entry inhibition, cell reporter; control for the full effect not named in the record; about a third of the inactives were read at about 46 µM. Potency, µM (titrated, usually from 37.8 µM), inactives show top-dose activity change, negative = inhibition, usual class: inhibitors. hit rate 1.8% among 300,000; active = well fitted inhibition curve with a large enough effect; inconclusive = small, poorly fitted or top-dose-only effect, or effect the other way; inactive = flat fitted curve, though single readings scatter; tested in HEK293 cells; about a fifth of its hits are not listed in these tables; also: % is scaled to controls: 0 for no effect and ±100 for the full control effect; luciferase read-out
# NS1 inh: inhibitors of influenza NS1 protein function; hit rate 0.4% among 270,000; S. cerevisiae slowed by influenza A NS1, growth recovery by OD600; Potency, µM (titrated, usually from 46.1 µM), without a hit: at the highest dose activity, positive = more growth; AID 2326; also: actives are rising curves; nearly all actives have a fitted effect of over 50% in size
#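 Recovery from NS1-induced slow growth read by OD600 in budding yeast switched to galactose assay medium (pH 6.0, -URA) at 1:100 dilution. Compound 23 nl per well; the matching strain lacking NS1 serves as control.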
# SARS PLP yeast: inhibitors of SARS-CoV papain-like protease in yeast; S. cerevisiae expressing SARS-CoV PLpro, growth rescue; control for the full effect not named in the record; Potency, µM (top dose mostly 32.9 µM), without a hit: at the highest dose activity, positive = growth rescue; hit rate 0.19% among 330,000; AID 485353; also: 0% is about no effect; nearly all actives have a fitted effect of over 55% in size; growth read by luminescence after 48 h
# Cruzain noTriton: cruzain (T. cruzi) inhibition without detergent | P25779 | purified cruzain, Z-FR-AMC fluorescence, no detergent | Potency, µM, without a hit: max response, negative = inhibition, actives largely listed as inhibitors | hit rate 2.3% among 200,000 | AID 1476; active = well fitted curve in the direction sought with a large enough effect; inconclusive = small, poorly fitted or top-dose-only effect, or another doubt; inactive = no such curve, though single readings can be large; an effect the other way counts as inactive or inconclusive;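 also: plate controls were enzyme without inhibitor for no effect and buffer without enzyme for full effect; nearly all actives have a fitted effect of over 40% in size; top concentration of the series not given in the record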
#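 Purified cruzain at 1.5 nM, pre-incubated 15 min with compound at room temperature in 100 mM sodium acetate pH 5.5, 5 mM DTT, 0.00005% Triton X-100. Reaction started with 2 uM Z-FR-AMC; AMC fluorescence increase over 60 s gives rate.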
# RE007 growth inh: less growth of the S. pombe RE007 Vpr strain. S. pombe RE007 Vpr strain, BacTiter-Glo ATP luminescence, 24 h; control for the full effect not named in the record. Potency, µM (titrated, usually from 92.2 µM), for inactives: at the top dose activity change, negative = less growth. hit rate 0.21% among 360,000. AID 651644; active = well fitted falling curve with a large enough effect; inconclusive = small, poorly fitted or top-dose-only effect; inactive = no such curve, though single readings can be large or run the other way;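 also: % is scaled to controls: 0 for no effect and ±100 for the full control effect; nearly all actives have a fitted effect of over 50% in size; the assay follows cell death caused by Vpr and the record does not say whether a fall means rescue or toxicity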
#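 Fission yeast RE007 carrying one integrated HIV-1 vpr copy, seeded at OD 0.01 in PMG+AL medium with 23 nL pinned compound. Grown 24 h at 30 degrees; viability read by BacTiter-Glo luminescence after 5 min.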
# The depositor's hits bear a star; ? = inconclusive; . = not tested or not shown; & = joins results of further samples; [ ] = dose if it differs, or a comment. Unless noted, calls follow the shape of the dose curve; as a rule, active means well fitted rising curve with a large enough effect; inconclusive means small, poorly fitted or top-dose-only effect; inactive means no such curve, though single readings can be large or run the other way. Potency is read from the fitted curve at half-maximal effect.
SMILES,2A StopGo,Cruzain Triton,LASV entry inh,MARV entry inh,NS1 inh,SARS PLP yeast,Cruzain noTriton,RE007 growth inh
CCCn1c(N)c(N(CCOC)C(=O)c2cc(Cl)nc3ccccc23)c(=O)[nH]c1=O,1.9%,.,0.0%[46.1 µM],3.4%,.,-3.5%,.,11.3%
O=C(CCc1nnc2ccc(NCc3ccco3)nn12)Nc1cccc(F)c1,-20.6%,.,.,.,16.6%,-5.5%,.,-3.0%
CCOC(=O)N1CCN(C(=O)C2CCN(C(=O)c3cc4sccc4n3CC)CC2)CC1,-27.4%,-1.5%,-13.2%,1.0%&1.0%,-2.7%,14.7%,?,-2.4%
COc1cc2c(=O)c(C(=O)c3ccc(C)c(C)c3)cn(Cc3ccc(F)cc3)c2cc1OC,?,4.0%,15.8%[46.1 µM],-1.0%[46.1 µM],.,.,3.7%,.
Cc1ccc(-c2nnn(CC(=O)N(CC3CCCO3)C(C(=O)NCC3CCCO3)c3ccc(F)cc3)n2)o1 (stereo not drawn),-11.3%,0.3%,0.2%,-5.2%,-0.4%,10.4%,?,0.7%
CCOc1cccc(/C=C/c2ccc3cccc(O)c3n2)c1OC,-16.4%,.,?,?,-93.1%,-2.2%,.,-14.6%
COc1ccc2cc(OCC(=O)NNC(=O)Nc3ccc(C(C)=O)cc3)ccc2c1,20.3%,.,5.4%[46.1 µM],?,-5.7%,-5.7%,.,-4.1%
CC1CCN(C(=O)CSc2nc(N)c(NC(=O)c3ccccc3)c(=O)[nH]2)CC1,-18.3%,.,.,.,3.6%,7.2%,.,5.8%
CC(C)(C)N=C1NC(=NC(C)(C)C)c2ccccc21,-13.0%,-0.3%,?,14.6µM*,-2.0%,8.7%,-13.6%,-4.0%
COc1cnc(-c2ccccn2)nc1Oc1ccc(F)cc1F,37.6%[activator],.,-8.9%[46.1 µM],?,.,11.1%,.,-8.4%
Cc1c(Cl)cccc1NC(=O)Cn1nnc2sc3c(c2c1=O)CCCC3,4.5%,-1.8%,10.5%[46.1 µM],0.3%[46.1 µM],.,.,?,.
O=[N+]([O-])c1cc2oc3c(c2c(C=NCc2ccccc2)c1O)CCCC3,0.0%,-1.6%,?,8.5%,-18.3%,-14.5%,6.4%,?
Cn1c(CCNC(=O)c2ccc(Cl)c(Cl)c2)nnc1SCc1ccc(Cl)c(Cl)c1,-17.6%,-7.3%,1.0%,-15.0%,3.3%,2.2%,-1.7%,12.0%
CC1CCC(C(C)C)C(OC(=O)Cn2c(-c3ccccc3)[n+](C)c3ccccc32)C1 (stereo not drawn),12.6µM*,-0.6%&3.4%,7.08µM*,5.8µM*,-6.6%&-8.1%,-10.8%&-30.5%,10.8%&4.6%,2.0%&32.5%
CC(=O)Nc1ccc(C(F)(F)F)cc1Cl,-3.8%,.,1.1%,-6.2%,1.4%,-1.9%,.,-12.6%
Cc1ccc(CNC(=O)Cn2c(=O)ccc3cc(S(=O)(=O)N4CCC(C)CC4)ccc32)cc1,-22.5%,1.4%,-4.5%[46.1 µM],.,.,.,-0.6%,.
CCN(CC)CCn1c2c(c(SCC(=O)Nc3nccs3)nc1=O)CCCC2,13.3%,.,0.8%,1.4%,.,-2.3%,.,11.1%
COC(=O)C1CC(c2c(OC)cc(OC)cc2OC)=NO1 (stereo not drawn),-0.8%,-0.1%,11.5%,1.1%,6.4%,-4.6%,-13.5%,25.2%
Cc1cc(C)c(C(=O)OCC(=O)NCc2cccs2)c(C)c1,-4.6%,.,?,-10.2%[46.1 µM],.,-1.7%,.,-10.0%
CC1(C)C(=O)Nc2ccccc2N1C(=O)COC(=O)c1cc([N+](=O)[O-])ccc1N,?,-10.4%,.,.,3.7%,16.5%,-4.2%,-3.4%
Cc1ccc2c(CSc3nnc(N)s3)cc(=O)oc2c1,57.8%[activator],-2.6%,-2.1%,15.2%,-2.5%,-2.2%,-24.5%,-2.2%
CCCc1ccc(C(C)NC(=S)NC2CCCCC2)cc1 (stereo not drawn),-25.0%,.,.,.,-101.1%,-1.8%,.,-5.5%
CC(C)c1ccc(S(=O)(=O)N2CCC(N3CCN(Cc4ccccc4)C(=O)C3=O)CC2)cc1,-8.3%,3.4%,12.3%[46.1 µM],.,.,.,13.5%,.
O=C1c2ccccc2C(=O)N1Cc1cc(Cl)c(O)c([N+](=O)[O-])c1,-12.7%,.,9.4%[46.1 µM],2.6%[46.1 µM],-37.2%,-0.3%,.,2.7%
CCN(c1ccccc1)S(=O)(=O)c1nnc(NC(=O)C(C)C)s1,-16.8%,.,-34.7%[46.1 µM],6.5%[46.1 µM],2.0%,0.3%,.,-2.4%
Cc1c(C(=O)N2CCCC2)c(S(=O)(=O)NCCc2ccccc2)c(C)n1C,59.2%[activator],.,7.3%[46.1 µM],-21.7%[46.1 µM],-11.6%,8.5%,.,3.3%
COc1ccc(/C=N\N=C(N)N)cc1,-13.0%,.,?,?,.,1.2%,.,-28.7%
O=C(CC1(O)C(=O)Nc2ccccc21)c1ccc2c(c1)OCO2 (stereo not drawn),46.2%[activator],0.7%,1.0%,17.0%,?,-0.8%,0.7%,9.1%
O=C(NNC(=O)c1ccccc1O)c1ccc(Cl)c(S(=O)(=O)N2CCc3ccccc32)c1,?,.,?,-28.6%[46.1 µM],.,1.1%,.,-15.7%
CCCc1nc2c(sc3nc4c(cc32)COC(C)(C)C4)c(=O)o1,20.6%,.,.,.,2.1%,-0.3%,.,9.7%
Cc1cccc(OCC(=O)NNS(=O)(=O)c2ccccc2F)c1,-0.7%,.,-9.3%[46.1 µM],4.9%[46.1 µM],4.6%,1.7%,.,5.6%
CCC(=O)N1CCc2cc(S(=O)(=O)NC(C(=O)NCc3ccc(C)cc3)C(C)C)ccc21 (stereo not drawn),6.0%,-6.4%,-20.3%,-10.2%,7.3%,1.8%,?,-11.8%
CC(=O)N1CCN(Cc2nc3cc(NC(=O)c4ccccc4Cl)ccc3n2C)CC1,-18.7%,.,.,13.9%[46.1 µM],-2.2%,1.1%,.,1.8%
CCNC(=S)N1CCN(S(=O)(=O)c2ccc(Cl)s2)CC1,-19.2%,.,-8.4%,?,.,-2.2%,.,16.3%
C=CCn1c(CNS(=O)(=O)c2ccc(Cl)cc2)n[nH]c1=S,9.7%,.,.,.,14.0%,7.4%,.,8.9%
O=C(O)c1ccc2nc(-c3cc4cc(Cl)ccc4oc3=O)[nH]c2c1,31.5%[activator],3.0%,20.2%[46.1 µM],.,.,.,5.3%,.
CCS(=O)(=O)c1ncc(Cl)c(C(=O)N2CCN(c3ccc(OC)cc3)CC2)n1,31.6µM*,-4.0%,?,?,.,.,6.4%,.
Cc1ncoc1C(=O)N1CCc2c([nH]c3ccccc23)C1C(C)(C)C (stereo not drawn),-6.3%,.,.,.,-0.9%,-0.1%,.,0.6%
C[C@@H]([C@@H](O)c1ccccc1)N(C)C(=O)C(N)Cc1ccccc1 (stereo partly drawn),-6.0%,.,.,.,-3.2%,-5.9%,.,8.7%
O=C(NCc1ccc(Cl)cc1)C1CCCN(S(=O)(=O)c2cnc[nH]2)C1 (stereo not drawn),-8.3%,1.6%,.,.,8.8%,10.7%,9.2%,-5.1%
COc1c(C)cc(Br)cc1C(=O)Nc1ccccc1C,-18.8%,.,.,.,-4.3%,0.5%,.,-12.7%
COc1ccc(CCNC(=O)C2CCN(Cc3nc(-c4ccc(OC)c(OC)c4)oc3C)CC2)cc1OC,-14.8%,1.0%,1.2%[46.1 µM],2.4%[46.1 µM],.,.,-12.9%,.
COc1ccc(N2Cc3cccc(C(=O)O)c3C2=O)cc1,-1.3%,-1.2%,.,.,-86.8%,9.1%,2.8%,1.3%&-7.0%
CN(C)CCNC(=O)c1ccc(Cl)s1,4.1%,-0.4%,10.2%,1.6%,8.3%,2.9%,5.1%,14.9%
OCC1CCCN(C(=S)NCCc2ccccc2)C1 (stereo not drawn),64.6%[activator],-0.7%,?,12.0%,?,1.9%,-1.6%,19.7%
O=C(Cn1ccn(-c2ccc(F)cc2)c(=O)c1=O)Nc1ccccc1C(F)(F)F,19.6%,-1.3%,-9.7%[46.1 µM],.,.,.,14.4%,.
Cc1ccc(OCC(=O)N(c2ccc(C)cc2)S(=O)(=O)c2ccc(Cl)cc2)cc1,-9.3%,-4.7%,-21.0%[46.1 µM],.,.,.,?,.
CCn1c(SCC(=O)Nc2ccc(-c3nc4ccc(C)cc4s3)cc2)nnc1-c1ccccc1,.,-13.7%,11.0%,14.6%,3.2%,-6.7%,?,.
O=C(c1ccc(Cl)c(S(=O)(=O)N2CCCCC2)c1)N1CCN(c2ccccc2)CC1,?,.,?,?,-8.3%,-0.5%,.,-6.9%
O=C(NNS(=O)(=O)c1ccc(F)cc1)c1sccc1-n1cccc1,18.0%,.,2.9%,?,.,-0.3%,.,-14.2%
COc1ccc(Cl)cc1NC(=O)Cn1c2ncccc2c(=O)n1-c1ccc(C)c(C)c1,-11.4%,1.2%,11.9%[46.1 µM],.,.,.,-4.1%,.
COc1ccc(-c2[nH]c(-c3ccccc3)nc2SCC(=O)NCc2ccco2)cc1OC,-18.6%,-1.3%,.,3.5%,-2.4%,0.5%,5.6%,2.5%
COc1ccc(S(=O)(=O)N2c3ccccc3OCC2C)cc1 (stereo not drawn),-18.2%,.,?,-19.0%[46.1 µM],.,-6.5%,.,3.8%
CC1CCN(c2c(NCC3CCC(C(=O)NCCc4ccc(Cl)cc4)CC3)c(=O)c2=O)CC1 (stereo not drawn),0.0%,.,?,?,9.7%,-5.2%,.,-0.6%
Cn1cc(C(=O)OCC(=O)NC2CCCC2)c2ccccc21,-13.7%,.,-9.3%,?,.,-3.6%,.,1.2%
CC1CCN(S(=O)(=O)c2nnc(NC(=O)COc3ccccc3)s2)CC1,-5.3%,.,.,.,-4.2%,-7.2%,.,-12.5%
